YopH inh: YopH (Yersinia) phosphatase inhibition; 140,000 tested, 0.16% active; inhibition, %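 (about 10 µM by stock and volumes)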; AID 898; fluorescence Ex485/Em525;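 active = inhibition of 50% or more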;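 note: controls were vehicle for no effect and minimum signal wells for full effect; inactives centre near -20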
Mtb H37Rv: M. tuberculosis H37Rv growth inhibitors, H37Rv strain (AID 1626). inhibition, % at 10 µM; hits with a dose series show IC50 in µM. M. tuberculosis H37Rv growth inhibition; higher % means a stronger effect. 220,000 tested, 0.95% active;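 active = confirmed in a dose series; inconclusive = inhibition above 80% but not taken into the dose series; inactive = below 80% or under 30% at every dose of the series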;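 note: bacteria incubated seven days before Alamar blue readout; 0% = bacteria only wells and 100% = bacteria with antibiotic wells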
RecA intein inh: Mtb RecA intein splicing inhibition | P9WHJ3 | cell-free RecA intein splicing, fluorescence | inhibition, %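 (about 9 µM by stock and volumes)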 | 290,000 tested, 0.75% active | AID 2221; in the data active = inhibition above about 30%; inconclusive = no clear call, values can overlap the other calls;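 note: 0% = vehicle wells and 100% = reference inhibitor control wells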
Target sequence (P9WHJ3 whole entry, looked up): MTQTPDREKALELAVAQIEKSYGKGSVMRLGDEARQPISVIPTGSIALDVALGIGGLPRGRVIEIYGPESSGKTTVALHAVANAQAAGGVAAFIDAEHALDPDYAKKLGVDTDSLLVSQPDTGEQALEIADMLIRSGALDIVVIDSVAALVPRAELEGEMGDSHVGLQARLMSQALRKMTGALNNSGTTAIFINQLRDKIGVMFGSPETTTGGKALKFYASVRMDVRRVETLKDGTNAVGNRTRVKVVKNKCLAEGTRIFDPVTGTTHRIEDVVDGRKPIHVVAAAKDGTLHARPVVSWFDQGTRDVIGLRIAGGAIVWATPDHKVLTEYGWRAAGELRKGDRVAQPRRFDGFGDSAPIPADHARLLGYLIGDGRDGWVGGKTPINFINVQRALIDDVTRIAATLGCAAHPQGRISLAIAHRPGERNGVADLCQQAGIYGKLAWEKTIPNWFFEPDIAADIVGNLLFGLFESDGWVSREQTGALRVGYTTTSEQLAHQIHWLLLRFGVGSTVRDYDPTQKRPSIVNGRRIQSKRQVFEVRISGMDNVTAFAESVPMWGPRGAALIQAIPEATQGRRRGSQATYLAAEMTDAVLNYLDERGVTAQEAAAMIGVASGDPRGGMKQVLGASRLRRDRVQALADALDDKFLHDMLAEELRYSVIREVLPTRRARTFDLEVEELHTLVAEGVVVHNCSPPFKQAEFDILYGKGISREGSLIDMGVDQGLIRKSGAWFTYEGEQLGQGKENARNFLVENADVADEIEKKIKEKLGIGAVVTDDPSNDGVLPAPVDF
Arbovirus anti: antivirals against arbovirus infection. inhibition, % at 10 µM. arbovirus infection cell-based antiviral screen. AID 1251. 200,000 tested, 0.37% active;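 active = inhibition from about 30%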;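 note: bluetongue infection of BSR cells; cell survival read as ATP light after 72 h; 0% = infected wells without compound and 100% = uninfected wells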
Mtb bLac sens: beta-lactam sensitization of Mtb H37Rv; inhibition, % at 25 µM; AID 434955; 330,000 tested, 0.27% active; M. tuberculosis H37Rv growth with meropenem, percent inhibition; hits of this screen are not shown here;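 active = about 74% or more and at least 40 points above the plate without the antibiotic, then above 30% in a dose series; inconclusive = first-round hits that could not be retested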;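 note: growth measured after seven days incubation then overnight dye step; 0% = bacteria only wells and 100% = bacteria with antibiotic; twin plates without the antibiotic show which effects depend on it; some results filed as inactive read as strong as hits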
Arbovirus anti repeat: further read-out of Arbovirus anti, marked with its call; inhibition, %; measured here: 10K subset replicate screen; many hits read low in the repeat;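 first of two repeat runs on a subset; 0% = infected and 100% = uninfected wells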
Numbers without * were called inactive; ? = inconclusive; . = not tested or not shown.

SMILES | YopH inh | Mtb H37Rv | RecA intein inh | Arbovirus anti | Mtb bLac sens | others
CC1CCCCC12NC(=O)N(CC(=O)c1ccc(Cl)s1)C2=O (centres undefined) | . | . | -1.5 | . | 0
O=C(O)[C@H](Cc1ccccc1)NC(=O)N1CCN(c2cccc(C(F)(F)F)c2)CC1 | . | -5% | -0.8 | . | -3
CC(C)(O)C(=O)NNC(=S)NCc1ccco1 | . | -2% | -2.6 | -1 | 17
CCOC(=O)NCN1C(=O)C2C3C=CC(C3)C2C1=O (centres undefined) | 16 | -14% | 2.4 | 6 | -21
CC(/C=C/c1ccc(Cl)o1)=C\C(=O)O | -47 | -4% | 0.3 | . | 14
CC(=O)N(c1nc(/C=C\C(=O)O)cs1)c1ccccc1F | . | -7% | -3.3 | . | -4
CC(C)(C)c1ccc(OCCNCc2ccccc2)cc1 | . | . | -2.1 | . | 8
O=C(Cn1nc(-c2ccco2)ccc1=O)Nc1cc(C(F)(F)F)ccc1Cl | . | . | 1.0 | . | -1
CCOc1ccc(/C=N/OC(C)C(=O)NCc2ccc3c(c2)OCO3)cc1 (centres undefined) | -1 | 4% | 1.1 | -8 | 3
Cc1cccc(N2CCN(c3ccc4cc(S(=O)(=O)N5CCCCC5)ccc4n3)CC2C)c1 (centres undefined) | . | . | -0.5 | . | 1
CCN(CC)C(=O)CSC(Nc1cccc(F)c1)=C(C#N)C#N | . | -3% | 15 | . | -5
O=C1Nc2cc(C(=O)N3CCN(c4ccccc4F)CC3)ccc2NC1CSCc1ccccc1F (centres undefined) | . | . | 19 | . | -6
O=C(O)C1=C[C@H](c2csc3ccccc23)C[C@H](OCc2ccc(CO)cc2)O1 | . | -3% | 1.0 | 5 | 2
CC1(C)CC(NC(=O)c2ccccc2F)CC(C)(C)N1 | . | . | 0.9 | . | 3
CNc1ccc(/C=C/C(=O)c2ccc(C)cc2)cc1[N+](=O)[O-] | -27 | 10% | 0.7 | 2 | 5
Cc1cc(C)c(OCC(=O)N(C)CC(=O)Nc2ccc(N3CCOCC3)cc2)c(C)c1 | . | . | 0.0 | . | -9
CCOc1cc(CNCCCN2CCOCC2)cc(Br)c1OCc1ccccc1Cl | . | 15% | 2.7 | -31 | 100
[O-]/C(=C(\C(=S)NCc1ccco1)[n+]1ccccc1)c1ccccc1Br | -24 | -13% | 6.6 | 1 | 2
COc1ccc(C(=O)C(OC(=O)c2ccccc2Cl)c2ccccc2)cc1 (centres undefined) | -49 | -11% | 6.4 | -10 | -4
COC(=O)C(O)(c1ccc(N(C)C(=O)c2cccs2)cc1)C(F)(F)F (centres undefined) | . | -9% | 0.4 | 3 | -7

The last 5 entries of the section above come first, to join the parts.
SMILES | YopH inh | Mtb H37Rv | RecA intein inh | Arbovirus anti | Mtb bLac sens | others
Cc1cc(C)c(OCC(=O)N(C)CC(=O)Nc2ccc(N3CCOCC3)cc2)c(C)c1 | . | . | 0.0 | . | -9
CCOc1cc(CNCCCN2CCOCC2)cc(Br)c1OCc1ccccc1Cl | . | 15% | 2.7 | -31 | 100
[O-]/C(=C(\C(=S)NCc1ccco1)[n+]1ccccc1)c1ccccc1Br | -24 | -13% | 6.6 | 1 | 2
COc1ccc(C(=O)C(OC(=O)c2ccccc2Cl)c2ccccc2)cc1 (centres undefined) | -49 | -11% | 6.4 | -10 | -4
COC(=O)C(O)(c1ccc(N(C)C(=O)c2cccs2)cc1)C(F)(F)F (centres undefined) | . | -9% | 0.4 | 3 | -7
O=C(Nc1ncccc1O)c1ccc(Oc2ccccc2)cc1 | . | . | 9.2 | . | 30
COc1cccc(NC(=O)C(C)N2C(=O)c3ccccc3C2=O)c1 (centres undefined) | . | . | 0.7 | . | -2
N#Cc1cc(-c2cccc(Cl)c2)c[nH]c1=O | -37 | -10% | 4.8 | 10 | 1
COC(=O)CCC(=O)NNC(=O)c1cccc(Br)c1 | -25 | -1% | 0.7 | -4 | -8
Cc1ccc2ncccc2c1NC(=S)NC(=O)c1ccccc1 | . | 8% | 1.3 | 6 | -5
O=C(CSc1nc2c(sc3ccccc32)c(=O)n1CCO)NCc1ccco1 | -36 | -1% | 0.0 | -10 | 5
Cc1ccc(C)c(/C=N/NC(=S)NC(C)C)c1 | -22 | 1% | 0.6 | 8 | 0
COc1ccc(OC)c(-c2c[n+](=O)c3c(n2[O-])CCCC3)c1 | -40 | -5% | -0.8 | 1 | 5
CCC(C)(C)n1nnnc1C(c1ccc(OC)c(OC)c1)N1CCN(c2ccc(F)cc2)CC1 (centres undefined) | -21 | -1% | 4.1 | 9 | -10
COc1ccc(Cc2[nH]n3c(=O)cc(C)nc3c2-c2ccccc2)cc1 | . | 1% | 5.5 | -5 | -5
Cc1ccc(S(=O)(=O)Nc2cccnc2)cc1C | . | . | -2.0 | . | -9
O=C(NCCc1c[nH]c2ccccc12)C(=O)NCC(c1ccco1)N1CCN(c2ccccc2F)CC1 (centres undefined) | -30 | 18% | -0.6 | -4 | -3
COc1cccc(C(=O)NNC(=O)C2CC(C)=C(C)CC2C(=O)O)c1 (centres undefined) | -19 | -7% | 2.7 | -3 | -3
COC(=O)C1(CCSC)NC(c2ccccc2OC)C2C(=O)N(C)C(=O)C21 (centres undefined) | -2 | -11% | -1.4 | 5 | -5
O=C(NCCc1c[nH]c2ccccc12)C1CCN(Cc2ccc(Br)cc2)CC1 | . | . | 3.8 | . | 0
CCCCN(Cc1ccccc1)C1CCN(CCc2ccccc2)CC1 | -24 | 13% | 0.6 | 15 | -2
CC(c1ccccc1)n1c(Br)nc2c1c(=O)[nH]c(=O)n2C (centres undefined) | . | . | 2.8 | . | -6
CCOc1cccc2sc(N(CCCN(C)C)C(=O)c3ccc(S(=O)(=O)N(C)c4ccccc4)cc3)nc12 | . | -3% | 4.7 | 8 | 1
CCCNC(=O)c1ccccc1NC(=O)COc1cccc2c1OC(C)(C)C2 | . | . | 2.7 | . | -5
COc1ccc(OC)c(NC(=O)CSc2nnc(C3CCCCC3)n2N)c1 | . | . | 0.0 | . | -6
CN1CCN(c2nc(-c3ccc(Cl)c(Cl)c3)nc3ccccc23)CC1 | . | . | 0.8 | . | 72
CN(CCC#N)C(=O)COC(=O)c1ccc(Cl)c(S(=O)(=O)N(C)c2ccccc2)c1 | . | 8% | -2.1 | 2 | 1
CCCOC(=O)CCn1c(=S)oc2ccccc21 | -40 | -1% | -1.3 | -1 | -5
CCOC(=O)CNC(=O)c1ccc2c(c1)OCCO2 | -28 | -2% | 5.3 | 12 | -4
C/C(=N\NC(=O)CNC(=O)C1COc2ccccc2O1)c1ccc(Cl)cc1 (centres undefined) | . | 4% | -0.7 | . | 5
COc1ccc(-n2cnnc2SCC(=O)Nc2cccnc2Cl)cc1 | . | 2% | 4.0 | 7 | 6
Cc1nc2c(-c3ccc(Cl)cc3)c(C)[nH]n2c(=O)c1Cc1ccccc1 | . | 2µM* | -4.5 | -17 | 99
Cc1c2c(n3c(nc4ccccc43)c1C#N)N(CCN1CCOCC1)CC2 | . | -3% | -205 | -4 | 14
O=C(CSc1nnc(SCc2ccc(Cl)cc2)s1)N/N=C/c1c[nH]c2ccccc12 | -42 | 11% | 1.4 | -23 | 5
COc1cc(Br)cc2cc(C(=O)OC3CCN(C)CC3)c(=O)oc12 | 31 | -9% | -0.4 | . | 6
O=S1(=O)CCOC[C@H](c2ccccc2)N1Cc1cccc(F)c1 | . | . | 0.8 | . | -8
Cc1cccc(-n2ncc3c(N4CC(C)CC(C)C4)ncnc32)c1 (centres undefined) | . | 19% | 3.2 | 16 | 5 | Arbovirus anti repeat=10
O=C(CN1CCCC1=O)NC1CCCc2c1cnn2-c1cc(F)cc(F)c1 (centres undefined) | . | . | -1.5 | . | -6
CCCCCCCCCS(=O)(=O)N/N=C/c1cccc([N+](=O)[O-])c1 | -36 | 0% | 4.7 | -28 | ?
Cc1cccc(C(=O)Nc2ccccc2NC(=O)c2cccc(C)c2)c1 | . | . | 5.7 | . | 2
Cc1ccc(-c2n[nH]c(=S)n2/N=C/c2sccc2C)cc1 | . | 7% | . | . | -2
O=C1N(c2ccccc2)C(c2cccnc2)N2CCCN12 (centres undefined) | . | 1% | 1.3 | -2 | 4
CCN(CC)CC(=O)N1c2ccccc2Oc2c(c(=O)n(C)c(=O)n2C)C1c1cccc([N+](=O)[O-])c1 (centres undefined) | . | -3% | 2.7 | . | -4
CSc1nc2nc3c(cc2c(=O)n1-c1cccc(C)c1)COC(C)(C)C3 | . | 7% | 1.5 | . | -5
CC(=O)Nc1cc(NC(C)=O)c2nc(N)sc2c1 | -33 | -8% | 1.0 | -3 | -1
Cc1cc(C)c(C(=O)COC(=O)Cn2cnnn2)cc1C | 0 | -16% | -2.6 | 3 | 1
COc1ccc(C(=O)COc2cccc(NC(=O)c3ccco3)c2)cc1 | -11 | -3% | 3.5 | -1 | 59
CCOC(=O)C1=NOC(C(=O)NN(C)c2ncc(C(F)(F)F)cc2Cl)C1 (centres undefined) | . | -7% | 0.8 | 1 | -1
CCN(CC)C(=O)c1ccccc1NC(=O)c1ccccc1SC | . | 0% | -0.8 | 5 | 5
CC1(OC(=O)CCc2ccccc2)C(=O)C=C2C=C(c3ccc(C#N)cc3)N(C3CC3)C=C2C1=O (centres undefined) | . | -12% | -2.8 | . | 4
O=C(O)c1ccccc1/C=N/NC(=O)c1cc(-c2ccco2)nc2ccccc12 | . | 1% | -5.6 | . | 3
O=C(NCCOCC(F)(F)C(F)F)c1cc(F)c(F)cc1Cl | 9 | -1% | -2.5 | 3 | 13
CCOC(=O)[C@@H]1[C@H]2COc3ccc(Br)cc3[C@@H]2N2C(=O)N(c3cccc(Cl)c3)C(=O)[C@]12C | . | 4% | 8.5 | . | -11
CCCC(c1nnnn1CS(=O)(=O)c1ccc(C)cc1)N1CCN(C2CCCC2)CC1 (centres undefined) | . | . | 2.0 | . | -10
O=C(CNCC1CCCCC1)Nc1ccccc1N1CCCCC1 | 26 | -8% | 10 | -21 | 4
CC(C)C(OC(=O)/C=C/c1ccc2c(c1)OCO2)C(=O)NC(N)=O (centres undefined) | . | 7% | -1.1 | -5 | 1
CCc1ccccc1NC(=O)c1cc(-c2ccc(OC)cc2)on1 | . | . | -1.3 | . | 5
COc1ccc(-c2cc(OC)c3ccccc3n2)cc1 | -24 | 14% | 7.0 | 0 | 17
CCOC(=O)C1(CCOc2ccccc2)CCN(Cc2cc(OC)c3c(c2)OCO3)CC1 | . | 33% | 3.2 | 1 | 52

Fetched one by one from above (4):
SMILES | YopH inh | Mtb H37Rv | RecA intein inh | Arbovirus anti | Mtb bLac sens | others
COc1ccc(C(=O)COc2cccc(NC(=O)c3ccco3)c2)cc1 | -11 | -3% | 3.5 | -1 | 59
O=C(O)c1ccccc1/C=N/NC(=O)c1cc(-c2ccco2)nc2ccccc12 | . | 1% | -5.6 | . | 3
CC(C)C(OC(=O)/C=C/c1ccc2c(c1)OCO2)C(=O)NC(N)=O (centres undefined) | . | 7% | -1.1 | -5 | 1
CCOC(=O)C1=NOC(C(=O)NN(C)c2ncc(C(F)(F)F)cc2Cl)C1 (centres undefined) | . | -7% | 0.8 | 1 | -1

Screening data from PubChem BioAssay.

An excerpt, so the mix of outcomes need not match the whole.
